From PubChem BioAssay
2A StopGo – lowers the luciferase signal of an FMDV 2A StopGo reporter; human cells with a luciferase reporter of 2A StopGo recoding; control for the full effect not named in the record; Potency, µM (highest dose often 57.9 µM), for the others: at the top dose signal change, negative = less light; actives 1.2% (n = 410,000); active = well fitted falling curve with a large enough effect; inconclusive = small, poorly fitted or top-dose-only effect; inactive = no such curve, though single readings can be large or run the other way; tested in HEK293T cells; further: on the % scale 0 is the no-effect control and ±100 the full control effect; nearly all actives have a fitted effect of over 45% in size; luciferase light after 4 h
Cruzain Triton – inhibitors of Trypanosoma cruzi cruzain with detergent; P25779; purified cruzain, Z-FR-AMC fluorescence, 0.01% Triton; AID 1478; Potency, µM, for the others: max response, negative = inhibition, usual class: inhibitors; actives 0.43% (n = 200,000);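 further: plate controls were neutral wells for no effect and buffer without enzyme for full effect; nearly all actives have a fitted effect of over 40% in size; top concentration of the series not given in the record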
Target sequence (P25779 123-467 limits assumed): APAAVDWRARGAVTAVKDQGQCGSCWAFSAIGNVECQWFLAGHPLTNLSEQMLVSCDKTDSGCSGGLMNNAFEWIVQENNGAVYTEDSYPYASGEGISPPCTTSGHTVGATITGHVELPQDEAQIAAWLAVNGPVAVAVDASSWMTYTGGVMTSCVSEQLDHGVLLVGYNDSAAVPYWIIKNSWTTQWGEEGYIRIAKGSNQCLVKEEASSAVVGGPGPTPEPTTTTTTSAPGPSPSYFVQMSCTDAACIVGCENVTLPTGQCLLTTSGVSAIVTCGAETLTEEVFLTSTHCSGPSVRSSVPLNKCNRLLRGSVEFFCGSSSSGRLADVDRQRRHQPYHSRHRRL
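Detergent-containing arm of a paired screen for aggregation-based inhibition: 0.01% Triton X-100 present. Cruzain at 1.5 nM cleaved 2 uM Z-FR-AMC at pH 5.5 with 5 mM DTT; AMC fluorescence gain over 60 s measured activity.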
LASV entry inh – Lassa virus entry inhibition; Lassa virus pseudotype entry inhibition, cell reporter; control for the full effect not named in the record; Potency, µM (highest dose often 37.9 µM), for the others: top-dose activity change, negative = inhibition, actives largely listed as inhibitors; actives 1.2% (n = 300,000); active means well fitted inhibition curve with a large enough effect; inconclusive means small, poorly fitted or top-dose-only effect, or effect the other way; inactive means flat fitted curve, though single readings scatter; tested in HEK293 cells; further: on the % scale 0 is the no-effect control and ±100 the full control effect; nearly all actives have a fitted effect of over 50% in size; luciferase read-out
SARS PLP yeast – blocks SARS-CoV papain-like protease in a yeast assay. S. cerevisiae expressing SARS-CoV PLpro, growth rescue; control for the full effect not named in the record. Potency, µM (doses to about 32.9 µM), inactives show top-dose activity, positive = growth rescue. actives 0.19% (n = 330,000). AID 485353; active means well fitted rising curve with a large enough effect; inconclusive means small, poorly fitted or top-dose-only effect; inactive means no such curve, though single readings can be large or run the other way; further: 0% is about no effect; nearly all actives have a fitted effect of over 55% in size; growth read by luminescence after 48 h
NS1 function inh – blocks influenza NS1 protein function; S. cerevisiae slowed by influenza A NS1, growth recovery by OD600; Potency, µM (top dose mostly 46.1 µM), for inactives: at the highest dose activity, positive = more growth; actives 0.4% (n = 270,000); active means well fitted rising curve with a large enough effect; inconclusive means small, poorly fitted or top-dose-only effect; inactive means no such curve, though single readings can be large or run the other way; further: nearly all actives have a fitted effect of over 50% in size
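A cell-based growth assay was used: compounds that relieve NS1-induced slow growth of budding yeast raise OD600. Assay medium was yeast nitrogen base with ammonium sulphate and -URA supplement, pH 6.0, with 2% galactose.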
RE007 growth inh – less growth of the S. pombe RE007 Vpr strain. S. pombe RE007 Vpr strain, BacTiter-Glo ATP luminescence, 24 h; control for the full effect not named in the record. Potency, µM (highest dose often 92.2 µM), without a hit: top-dose activity change, negative = less growth. actives 0.21% (n = 360,000); active = well fitted falling curve with a large enough effect; inconclusive = small, poorly fitted or top-dose-only effect; inactive = no such curve, though single readings can be large or run the other way;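 further: on the % scale 0 is the no-effect control and ±100 the full control effect; nearly all actives have a fitted effect of over 50% in size; the assay follows cell death caused by Vpr and the record does not say whether a fall means rescue or toxicity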
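Fission yeast strain RE007, carrying one chromosomally integrated HIV-1 vpr copy, was seeded at OD 0.01 in PMG+AL medium with 23 nL pinned compound. After 24 h at 30 °C and 99% humidity, viability was read by BacTiter-Glo luminescence.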
MARV entry inh – blocks Marburg virus binding to or entry into cells | Marburg virus pseudotyped entry inhibition, cell reporter; control for the full effect not named in the record; about a third of the inactives were read at about 46 µM | actives 1.8% (n = 300,000) | Potency, µM (highest dose often 37.8 µM), for the others: top-dose activity change, negative = inhibition, hits mostly inhibitors; active = well fitted inhibition curve with a large enough effect; inconclusive = small, poorly fitted or top-dose-only effect, or effect the other way; inactive = flat fitted curve, though single readings scatter; tested in HEK293 cells; about a fifth of its hits are not listed in these tables; further: on the % scale 0 is the no-effect control and ±100 the full control effect; luciferase read-out
Cruzain inh noDet – cruzain (T. cruzi) inhibition without detergent | P25779 | purified cruzain, Z-FR-AMC fluorescence, no detergent | Potency, µM, without a hit: max response, negative = inhibition, hits mostly inhibitors | actives 2.3% (n = 200,000);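 further: plate controls were enzyme without inhibitor for no effect and buffer without enzyme for full effect; nearly all actives have a fitted effect of over 40% in size; top concentration of the series not given in the record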
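Detergent-free condition (0.00005% Triton X-100) in acetate buffer pH 5.5 with DTT. 1.5 nM enzyme and compound were pre-mixed 15 min, then 2 uM Z-FR-AMC substrate added; reaction progress from fluorescence change between first and third reads (60 s).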
* marks the source's active call; other numbers are inactive results; ? = inconclusive; . = not tested or not shown; & = joins results of further samples; [ ] = remark or other dose. Unless noted, the call rests on the fitted dose curve; in most records, active means well fitted curve in the direction sought with a large enough effect; inconclusive means small, poorly fitted or top-dose-only effect, or another doubt; inactive means no such curve, though single readings can be large; an effect the other way counts as inactive or inconclusive. Potency means the concentration at half of the fitted maximal effect.

The first 2 entries, ahead of the listing:
1	Cc1cccc(C(=O)O/N=C(\c2ccccc2)c2cccnc2)c1
2	Cn1ncc2c(Nc3cc(Cl)cc(Cl)c3)ncnc21
screen / no. | 1 | 2
2A StopGo | -20% | -19%
Cruzain Triton | -7.1% | .
LASV entry inh | 14% | .
SARS PLP yeast | -32% | -11%
NS1 function inh | -28% | -22%
RE007 growth inh | -17% | -13%
MARV entry inh | 17% | .
Cruzain inh noDet | 3% | .

This part in full (from the top)
1	Cc1cccc(C(=O)O/N=C(\c2ccccc2)c2cccnc2)c1
2	Cn1ncc2c(Nc3cc(Cl)cc(Cl)c3)ncnc21
3	COCCCN(C(=O)CSCc1ccc(C)cc1)c1c(N)n(Cc2ccccc2)c(=O)[nH]c1=O
4	COc1ccccc1-c1cc(NC(=O)COc2ccc(C)c(C)c2)n(-c2ccccc2)n1
5	Cc1ccc(SCCC(=O)Nc2ccccc2C(=O)NC2CCCCC2)cc1
6	CCOc1ccc(C(=O)OCC(=O)Nc2cccnc2Cl)cc1OCC
screen / no. | 1 | 2 | 3 | 4 | 5 | 6
2A StopGo | -20% | -19% | -12% | 3% | 2% | -16%
Cruzain Triton | -7.1% | . | . | 0.3% | -4.7% | .
LASV entry inh | 14% | . | ? | 5%[46.1 µM] | ? | ?
SARS PLP yeast | -32% | -11% | -1% | . | 8% | -4%
NS1 function inh | -28% | -22% | . | . | -6% | .
RE007 growth inh | -17% | -13% | -13% | . | 1% | -21%
MARV entry inh | 17% | . | 10% | . | 10% | 7%
Cruzain inh noDet | 3% | . | . | ? | 19% | .

7	CCOC(=O)c1ccc(NC(=S)N(CCCN2CCN(C)CC2)Cc2cccs2)cc1
8	Cc1ccc(OCc2ccc(C(=O)N3CCCC3)o2)cc1C
9	COc1ccc(Nc2nc(N3CCCC3)nc(N3CCCC3)n2)c(OC)c1
10	Cc1cc(N2CCOCC2)nc2ccc(NC(=S)N3CCCCC3C)cc12 (stereo unspecified)
11	Cc1ccc(C(c2nnnn2C(C)(C)C)N(Cc2ccco2)Cc2cccs2)cc1 (stereo unspecified)
12	CN(C(=S)NC(=O)c1ccc(F)cc1)C1CCCCC1
screen / no. | 7 | 8 | 9 | 10 | 11 | 12
2A StopGo | 9% | 28% | -16% | 30%[activator] | ? | 21%
Cruzain Triton | . | . | -6.9% | . | -5.8% | .
LASV entry inh | . | -25%[46.1 µM] | -19% | ? | ? | .
SARS PLP yeast | 0% | -20% | -4%[6.58 µM] | -6% | -5% | 6%
NS1 function inh | -1% | -31% | 7% | . | -41% | -11%
RE007 growth inh | 5% | -4% | -21% | 1% | -1% | 13%
MARV entry inh | ? | ? | 2.1µM* | 2.8µM* | ? | .
Cruzain inh noDet | . | . | 0% | . | -12% | .

Compound profiles (already shown).
Listed for `CCOC(=O)c1ccc(NC(=S)N(CCCN2CCN(C)CC2)Cc2cccs2)cc1` = 2A StopGo: 9%; Cruzain Triton: .; LASV entry inh: .; SARS PLP yeast: 0%; NS1 function inh: -1%; RE007 growth inh: 5%; MARV entry inh: ?; Cruzain inh noDet: .
Listed for `Cc1ccc(C(c2nnnn2C(C)(C)C)N(Cc2ccco2)Cc2cccs2)cc1` (stereo unspecified) = 2A StopGo: ?; Cruzain Triton: -5.8%; LASV entry inh: ?; SARS PLP yeast: -5%; NS1 function inh: -41%; RE007 growth inh: -1%; MARV entry inh: ?; Cruzain inh noDet: -12%
Listed for `CN(C(=S)NC(=O)c1ccc(F)cc1)C1CCCCC1` = 2A StopGo: 21%; Cruzain Triton: .; LASV entry inh: .; SARS PLP yeast: 6%; NS1 function inh: -11%; RE007 growth inh: 13%; MARV entry inh: .; Cruzain inh noDet: .

Additional results.
13	O=C(COC(=O)CCOc1ccccc1)NCCc1ccccc1
14	Cn1cccc1/C=N/NC(=O)CSc1nc2ccccc2[nH]1
15	CCOc1ccccc1/C=C/C(=O)NCC(=O)N1CCC(N(C)C2CCCCC2C)CC1 (stereo unspecified)
16	CCC(C(=O)NC1CCCC1)N(C(=O)Cn1nnc(-c2ccc(C)o2)n1)c1ccc(OC)c(OC)c1 (stereo unspecified)
17	CCc1ccccc1N(C(=O)c1cccs1)C1C=CS(=O)(=O)C1 (stereo unspecified)
18	COc1ccc(C(=O)OCC(=O)Nc2ccc3[nH]c(=O)[nH]c3c2)cc1
screen / no. | 13 | 14 | 15 | 16 | 17 | 18
2A StopGo | 13% | 2% | -13% | 9% | . | 6%
Cruzain Triton | . | . | . | . | 4.5% | .
LASV entry inh | 1%[46.1 µM] | 7% | -2%[46.1 µM] | . | 12% | 21%
SARS PLP yeast | 7% | 1% | 4% | -1% | 16% | 5%
NS1 function inh | . | 1% | -5% | -3% | -2% | .
RE007 growth inh | -1% | -2% | -16% | -5% | 13% | -1%
MARV entry inh | ? | -30% | -16%[46.1 µM] | 22%[46.1 µM] | 17% | ?
Cruzain inh noDet | . | . | . | . | 7% | .

Single values from the list:
`CCc1ccccc1N(C(=O)c1cccs1)C1C=CS(=O)(=O)C1` (stereo unspecified) – NS1 function inh: -2%
`CCC(C(=O)NC1CCCC1)N(C(=O)Cn1nnc(-c2ccc(C)o2)n1)c1ccc(OC)c(OC)c1` (stereo unspecified) – 2A StopGo: 9%
`CCOc1ccccc1/C=C/C(=O)NCC(=O)N1CCC(N(C)C2CCCCC2C)CC1` (stereo unspecified) – MARV entry inh: -16%[46.1 µM]
`O=C(COC(=O)CCOc1ccccc1)NCCc1ccccc1` – 2A StopGo: 13%

Following part
19	Cc1ccc(NC(=O)COC(=O)CCc2nc3ccccc3n2-c2ccccc2)c(C)c1
20	CCOc1ccc(N(CC(=O)Nc2ccccc2C(=O)N2CCOCC2)S(=O)(=O)c2ccc(F)cc2)cc1
21	COc1ccc2c(c1)CCc1c(C(=O)N3CCOCC3)noc1-2
22	Cc1ccccc1NC(=O)CCCn1nc(C)c2c(C)n(-c3ccccc3)nc2c1=O
23	CN(Cc1ccccc1)c1nc2c(c(=O)[nH]c(=O)n2C)n1C
24	OCCN1CCN(c2cc(C(F)(F)F)nc3ccccc23)CC1
screen / no. | 19 | 20 | 21 | 22 | 23 | 24
2A StopGo | -4% | -20% | 32%[activator] | -6% | -3% | -13%
Cruzain Triton | -0.5% | -4.2% | -3.7% | . | -3.2% | .
LASV entry inh | 2% | ? | ? | . | -26% | -3%[46.1 µM]
SARS PLP yeast | ? | 6% | 9% | 0% | ? | 1%
NS1 function inh | -16% | -3% | -6% | 7% | -7% | ?
RE007 growth inh | . | . | -16% | 0% | 2% | 4%
MARV entry inh | -13% | -2% | ? | . | 4% | 8%[46.1 µM]
Cruzain inh noDet | 2% | ? | -11% | . | -2% | .

25	COc1cccc(OCc2ccc(Cl)cc2)c1C#N
26	COc1cccc(C(=O)O/N=C(\N)c2ccc([N+](=O)[O-])cc2)c1OC
27	CCN(CC)C(=O)c1sc(NC(=O)c2cccnc2)c(C(=O)OC)c1C
28	COc1ccc(N2CCN(C(=O)C(CCSC)N=C3NS(=O)(=O)c4ccccc43)CC2)cc1 (stereo unspecified)
29	Cc1ccc(NC(=S)NNC(=S)Nc2ccc(C)cc2C)cc1
30	O=C(CCN1CCN(CCO)CC1)Nc1ccc(OCc2ccccc2)cc1
screen / no. | 25 | 26 | 27 | 28 | 29 | 30
2A StopGo | 4% | 6% | -12% | 30% | -17% | -8%
Cruzain Triton | . | 0.9% | -4.0% | 1.2% | . | 4.4%
LASV entry inh | . | ? | 1% | ? | ? | -3%
SARS PLP yeast | 0% | -5% | -14% | 1% | -1% | .
NS1 function inh | -8% | -2% | 8% | -16% | -7% | -11%
RE007 growth inh | -6% | -3% | -7% | 4% | 2% | -12%
MARV entry inh | . | ? | -4% | 24%[46.1 µM] | -15%[46.1 µM] | ?
Cruzain inh noDet | . | 2% | 2% | 22% | . | -11%

31	COc1ccccc1CN1C(=O)[C@@H]2C(CC(N)=O)NC3(C(=O)Nc4c3ccc(Cl)c4C)[C@@H]2C1=O (stereo partly specified)
32	O=C(/C=C/NCc1cccnc1)c1ccc(-c2ccccc2)cc1
33	Cc1ccccc1C(=O)Nc1ccc(C(=O)N/N=C/c2ccc(O)cc2)cc1
34	Cc1ccsc1C(=O)NCc1ccccc1Cl
35	Cn1c(=O)c2c(ncn2CC(=O)N(Cc2ccccc2)c2ccccn2)n(C)c1=O
screen / no. | 31 | 32 | 33 | 34 | 35
2A StopGo | -18% | 38%[activator] | 0% | 30%[activator] | -4%
Cruzain Triton | -0.1% | . | . | . | 5.1%
LASV entry inh | -13% | ? | ? | . | -1%
SARS PLP yeast | 6% | -23% | 1% | 1% | -1%
NS1 function inh | -28% | -118% | -3% | -11% | -2%
RE007 growth inh | 4% | -28% | -8% | -11% | -1%
MARV entry inh | 26%&26% | ? | ? | 16%[46.1 µM] | ?
Cruzain inh noDet | ? | . | . | . | -2%
